HCMV NEC inh – disrupts HCMV UL50-UL53 complex binding; 0.15% of 190,000 active; inhibition, % (test concentration not listed); HTRF UL50-UL53 interaction, normalized percent inhibition;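 active means both replicates at 50% or more, plus weaker picks with an unusually low signal ratio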;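 further: stock transfer was 100 nL into about 20 µL; 0% = negative control wells and 100% = wells with untagged competitor protein; inactives centre near -12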
Sa growth inh – blocks Staphylococcus aureus growth. S. aureus RN4220 growth, OD600, 20 h, 42 °C; stronger effect = lower value. relative growth, % (test concentration not listed). 0.53% of 170,000 active. AID 720641;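 active means growth at 42 °C up to 50% and 20 or more points under that at 30 °C, or under 10% at both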;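 further: 300 nL library stock went into each well; scaled to the means of positive and negative controls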
GIV-Gai inh – GIV-Galpha-i interaction inhibition | 0.42% of 210,000 active | percent of control (FP), % (no concentration beside the values) | P08753 | AID 1224905 | Galpha-i3/FITC-GIV peptide fluorescence polarization, 90 min; stronger effect = lower value; scaled: aluminum fluoride 0%, vehicle 100%;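 active means replicate mean at 85% of control or lower, very high polarization wells dropped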;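 further: wells of about 15 µL received 100 nL stock; the first replicate is given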
Target sequence (P08753 whole entry, looked up): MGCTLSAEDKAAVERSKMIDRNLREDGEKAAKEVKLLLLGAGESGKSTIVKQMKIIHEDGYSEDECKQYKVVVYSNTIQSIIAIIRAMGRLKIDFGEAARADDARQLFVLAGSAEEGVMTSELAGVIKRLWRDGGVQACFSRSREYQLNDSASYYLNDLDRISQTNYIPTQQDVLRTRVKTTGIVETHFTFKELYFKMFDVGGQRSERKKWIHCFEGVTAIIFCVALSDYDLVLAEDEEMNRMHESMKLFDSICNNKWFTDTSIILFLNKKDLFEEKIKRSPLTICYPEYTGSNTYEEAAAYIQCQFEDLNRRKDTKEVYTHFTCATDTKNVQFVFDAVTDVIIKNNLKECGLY
Sa growth inh second temp – also measured in Sa growth inh; calls as there; relative growth, %; measured here: growth at 30 °C;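 optical density after 20 h as mean of two plates; 100% = untreated growth and lower means inhibition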
The depositor's hits bear a star; · = no result given; & = joins results of further samples. The order is random. Share with any hit: about 0.85%.

Keys – A = HCMV NEC inh; B = Sa growth inh; C = Sa growth inh second temp; D = GIV-Gai inh
(1) CCOc1nc2cccnc2n(CC(=O)Nc2ccccc2C(F)(F)F)c1=O
  A = -18; B = 86; C = 83; D = 98

(2) CCCN1CCN(C(=O)Nc2ccc(C(=O)OCC)cc2)CC1
  A = 6; B = 98; C = 105; D = 109

(3) O=C(OCc1ccc(Cl)cc1Cl)c1ccc2ccccc2n1
  A = -19; B = 108; C = 96; D = 109

(4) CCN(Cc1ccccc1)C(=O)Cn1c(=O)oc2cc(S(=O)(=O)N3CCCCCC3)ccc21
  A = 9; B = 99; C = 104; D = 103

(5) COc1ccc(C2=NN3C(C2)c2cc(Cl)ccc2OC3c2ccc(F)cc2)cc1OC (stereo not given)
  A = -24; B = ·; C = ·; D = 125

(6) O=C(CCC1CCCC1)Nc1ccc(-c2nnc3n2CCCCC3)cc1
  A = ·; B = 82; C = 86; D = 102

(7) Cc1ccc(S(=O)(=O)c2n[nH]n3c2nc(=O)c2ccccc23)cc1
  A = ·; B = 95; C = 88; D = 100

(8) O=C(O)c1ccc2c(c1)C(=O)N(Cc1ccccc1)C2=O
  A = -38; B = 101; C = 83; D = 101

(9) CCOC(=O)c1ccccc1NC(=O)Cn1ccsc1=N
  A = -4; B = 104; C = 90; D = ·

(10) COc1ccc(-c2nc3c(sc(=S)n3-c3ccccc3)c(=O)[nH]2)cc1
  A = -17; B = 90; C = 92; D = 101

(11) CSc1n[nH]c(NC(C)=O)n1
  A = -16; B = ·; C = ·; D = 101

(12) CS(=O)(=O)Nc1cccc(C2=NN(C(=O)c3ccco3)C(c3ccccc3F)C2)c1 (stereo not given)
  A = ·; B = 94; C = 92; D = 105

(13) O=C(OCN1C(=O)c2ccccc2C1=O)c1ccc2ccccc2n1
  A = -10; B = 97; C = 92; D = ·

(14) CC(Sc1nnnn1C)C(=O)NCC1CCCCC1 (stereo not given)
  A = -5; B = 83; C = 103; D = ·

(15) CC(C)CC(=O)N1CCC2(CC1)CC(=O)c1ccccc1O2
  A = -28; B = 96; C = 87; D = 99

(16) CC1CCc2cc(F)cc3c(=O)c(C(=O)O)cn1c23 (stereo not given)
  A = -16&-25&-22; B = 30; C = 1; D = ·

(17) CCCNC(=O)N1CCC(N2CCN(Cc3ccc(F)cc3)C(=O)C2=O)CC1
  A = -1; B = ·; C = ·; D = 104

(18) COc1cc(NC(=O)CN2c3ccccc3S(=O)(=O)c3ccccc32)cc(OC)c1
  A = ·; B = 86; C = 68; D = 98

(19) CCSCCOC(=O)C1=C(C)NC2=C(C(=O)CC(c3ccccc3)C2)C1c1ccc2c(c1)OCO2 (stereo not given)
  A = -14; B = ·; C = ·; D = 100

(20) Cc1ccc(S(=O)(=O)N(CCC#N)Cc2ccccc2)cc1
  A = -16; B = 113; C = 97; D = 105

(21) CCOC(=O)c1ccc(N=C2SC(C(=O)NCCc3ccccc3)CC(=O)N2C)cc1 (stereo not given)
  A = -3; B = ·; C = ·; D = 104

(22) COc1ccc(NC(=O)CSc2oc(-c3cccs3)nc2S(=O)(=O)c2ccccc2)c(OC)c1
  A = 0; B = 98; C = 87; D = 106

(23) NC(=S)CCN1C(=O)c2ccccc2C1=O
  A = -31; B = 108; C = 95; D = 106

(24) CCOc1ccc(CCNC(=O)COc2cccc(-n3cnnn3)c2)cc1OCC
  A = -9; B = 112; C = 96; D = ·

(25) Cc1ccc(N2C(=O)CCS2(=O)=O)cc1S(=O)(=O)N(C)C1CCS(=O)(=O)C1 (stereo not given)
  A = -7; B = ·; C = ·; D = 106

Some values from the entries so far.
Under GIV-Gai inh, CCOC(=O)c1ccc(N=C2SC(C(=O)NCCc3ccccc3)CC(=O)N2C)cc1 (stereo not given) has 104
Under Sa growth inh, NC(=S)CCN1C(=O)c2ccccc2C1=O has 108
Under Sa growth inh second temp, CC1CCc2cc(F)cc3c(=O)c(C(=O)O)cn1c23 (stereo not given) has 1
Under Sa growth inh second temp, COc1ccc(-c2nc3c(sc(=S)n3-c3ccccc3)c(=O)[nH]2)cc1 has 92
Under HCMV NEC inh, CCOC(=O)c1ccccc1NC(=O)Cn1ccsc1=N has -4
Under GIV-Gai inh, Cc1ccc(S(=O)(=O)c2n[nH]n3c2nc(=O)c2ccccc23)cc1 has 100
Under HCMV NEC inh, CCOc1nc2cccnc2n(CC(=O)Nc2ccccc2C(F)(F)F)c1=O has -18

Part of the list above, showing only GIV-Gai inh.
nr	molecule	GIV-Gai inh
11	CSc1n[nH]c(NC(C)=O)n1	101
10	COc1ccc(-c2nc3c(sc(=S)n3-c3ccccc3)c(=O)[nH]2)cc1	101
21	CCOC(=O)c1ccc(N=C2SC(C(=O)NCCc3ccccc3)CC(=O)N2C)cc1 (stereo not given)	104
20	Cc1ccc(S(=O)(=O)N(CCC#N)Cc2ccccc2)cc1	105
3	O=C(OCc1ccc(Cl)cc1Cl)c1ccc2ccccc2n1	109

(next part)
Keys – A = HCMV NEC inh; B = Sa growth inh; C = Sa growth inh second temp; D = GIV-Gai inh
(26) Cc1cc(C)cc(Oc2coc3cc(OCC(=O)NCc4ccccc4)ccc3c2=O)c1
  A = ·; B = 85; C = 82; D = 112

(27) CC1=NN(C(=S)c2ccccc2)C(C)(O)C1 (stereo not given)
  A = -28; B = 100; C = 86; D = 111

(28) CCn1cc(SCC(=O)N2N=C(c3cccs3)CC2c2ccc(F)cc2)c2ccccc21 (stereo not given)
  A = -26; B = 97; C = 98; D = 97

(29) COc1cccc(NS(=O)(=O)c2ccc3c(c2)CCCN3C(=O)C2CCC2)c1
  A = ·; B = 87; C = 102; D = 109

(30) Cn1ccc2cc(S(=O)(=O)N3CCN(C(=O)Nc4ccc(F)cc4)CC3)ccc21
  A = 2; B = ·; C = ·; D = 106

(31) FC(F)(F)c1cccc(-n2cncn2)n1
  A = -16; B = 103; C = 95; D = 105

(32) Cc1cccc(CNC(=O)c2oc3c(c2C)-c2nn(Cc4ccccc4Cl)cc2CC3)c1
  A = -2; B = 101; C = 94; D = 103

(33) Cc1ccc(N2C(=O)Nc3ccccc3C2(O)C(=O)NC2CCCC(C)C2C)cc1C (stereo not given)
  A = ·; B = 78; C = 78; D = 98

(34) CC1CC(=O)N(Cc2ccc(Br)cc2)c2ccccc2N1 (stereo not given)
  A = 1; B = ·; C = ·; D = 95

(35) COc1ccc(C(=O)c2cn(Cc3ccccc3F)c3cc4c(cc3c2=O)OCO4)cc1
  A = -15; B = 71; C = 80; D = 98

(36) c1ccc(CSc2nnc(CCCCc3nnc(SCc4ccccc4)o3)o2)cc1
  A = -34; B = 91; C = 87; D = 99

(37) Cc1ccc(-c2onc(C)c2C)cc1S(=O)(=O)Nc1ccc(Cl)cn1
  A = ·; B = 91; C = 93; D = 96

(38) Cc1ccc(NC2=NC(c3ccc(Cl)cc3)n3c(nc(C)cc3=O)N2)cc1 (stereo not given)
  A = 12; B = ·; C = ·; D = 101

(39) Cc1nn(C(=O)c2cccc(Cl)c2)c(C)c1S(=O)(=O)N1CCOCC1
  A = ·; B = 84; C = 93; D = 105

(40) COc1cc(OC)c(NC(=O)CCc2c(C)nc3cc(-c4ccccc4OC)nn3c2C)cc1Cl
  A = 0; B = 95; C = 92; D = 103

(41) O=C(NCc1ccccc1)NCC(c1ccc(F)cc1)c1c[nH]c2ccccc12 (stereo not given)
  A = -11; B = ·; C = ·; D = 98

(42) CC(O)c1ccc(NC(=O)c2nn3c(c2Br)NC(c2cccs2)CC3C(F)(F)F)cc1 (stereo not given)
  A = -19; B = ·; C = ·; D = 91

(43) CS(=O)(=O)Nc1ccc2c3c(cccc13)CC2
  A = -31; B = 114; C = 117; D = ·

(44) Cc1nnc(NC(=O)CSc2nnc3c(n2)[nH]c2ccccc23)s1
  A = -45; B = 91; C = 89; D = 106

(45) CCCCN1Cc2c(n(CC(=O)c3ccccc3)c3cc(-c4ccccc4)nn3c2=O)C1=O
  A = -25; B = 96; C = 90; D = 102

(46) Cc1ccc(S(=O)(=O)NC(=O)N2c3ccccc3CCc3ccccc32)cc1
  A = ·; B = 94; C = 74; D = 105

(47) CCC(=O)Nc1ccc(C(=O)N2CCCCC2C)cc1 (stereo not given)
  A = 3; B = 103; C = 100; D = 100

(48) O=C(O/N=C1\Cc2ccccc2C1=O)c1cccs1
  A = -36; B = 89; C = 83; D = 101

(49) CCC(=O)Nc1ccc(C(=O)CSc2nnc(-c3ccc(O)cc3)n2CC2CCCO2)cc1 (stereo not given)
  A = -9; B = 107; C = 102; D = 95

(50) Cc1ccc(-n2c(=O)c3c(C)c(C(=O)N(C)C)sc3n(CC(=O)N(C)c3ccccc3)c2=O)cc1C
  A = ·; B = 99; C = 94; D = 101

Entries of single compounds, quoted from the list. Order of screens: HCMV NEC inh	Sa growth inh	Sa growth inh second temp	GIV-Gai inh
`CCOc1ccc(CCNC(=O)COc2cccc(-n3cnnn3)c2)cc1OCC` is listed with -9	112	96	·
`Cc1nnc(NC(=O)CSc2nnc3c(n2)[nH]c2ccccc23)s1` is listed with -45	91	89	106
`CS(=O)(=O)Nc1ccc2c3c(cccc13)CC2` is listed with -31	114	117	·
`Cc1cc(C)cc(Oc2coc3cc(OCC(=O)NCc4ccccc4)ccc3c2=O)c1` is listed with ·	85	82	112

Next compounds.
Keys – A = HCMV NEC inh; B = Sa growth inh; C = Sa growth inh second temp; D = GIV-Gai inh
(51) COc1ccc(-c2nc3sc(CCNC(=O)c4ccc(C(C)(C)C)cc4)c(C)n3n2)cc1
  A = ·; B = 98; C = 102; D = 104&102

(52) COC(=O)C(N)Cc1c[nH]c2ccccc12 (stereo not given)
  A = 13; B = 94; C = 100; D = ·

(53) CCn1ncc(Cc2cnn(CC)c2C)c1C
  A = -6; B = 89; C = 87; D = ·

(54) O=C(c1ccc(Cl)cc1)N(Cc1ccco1)Cc1ccco1
  A = -6; B = 78; C = 82; D = 102

(55) CN1CCN(c2nc(N3CCC(N4CCCCC4)CC3)nc3c2cnn3C)CC1
  A = -12; B = ·; C = ·; D = 104

(56) CCCn1c(NCc2cccc(OC)c2OC)nc2ccccc21
  A = -1; B = 95; C = 80; D = 100

(57) Cc1cc(Br)ccc1Nc1ncnc(-n2cccc2)n1
  A = -4; B = 118; C = 100; D = 101

(58) Cc1nc2nc(CNC(=O)c3cccc(F)c3)nn2c(C)c1CCC(=O)Nc1ccc(F)cc1
  A = -6; B = 109; C = 87; D = 100

(59) COc1ccc(NC(=O)CCc2nnc3n(Cc4ccccc4)c(=O)c4ccccc4n23)cc1
  A = ·; B = 102; C = 93; D = 101

(60) COc1ccc(NC(=O)C(NS(=O)(=O)c2cccc3nsnc23)C(C)C)cc1 (stereo not given)
  A = -100; B = 102; C = 93; D = 105

(61) O=C1c2cccnc2C(=O)N1Cc1ccc(S(=O)(=O)N2CCN(c3ccccc3)CC2)cc1
  A = -1; B = ·; C = ·; D = 103

(62) O=C(O)c1nccnc1C(=O)N1CCCCCC1
  A = -18; B = 88; C = 90; D = 107

(63) O=C1CCC(=O)N1c1nccs1
  A = ·; B = 96; C = 83; D = 100

(64) Cc1ccc(-c2nnc(NC(=O)CCS(=O)(=O)c3ccc(F)cc3)o2)c(C)c1
  A = -18; B = 100; C = 82; D = 100

(65) O=C(NCc1ccc(Cl)cc1)NC1COc2ccccc2C1 (stereo not given)
  A = ·; B = 112; C = 91; D = 101

(66) CCCCN(C)C(=O)CCc1nc2sc3c(c2c(=O)[nH]1)CCC(C)C3 (stereo not given)
  A = -22; B = ·; C = ·; D = 96

(67) Cc1cccc(Oc2ncc(F)c(Oc3cccc(C)c3)n2)c1
  A = -1; B = 105; C = 93; D = ·

(68) CSC1CCCCC1(O)CSc1nc2c(cc1C#N)CCCC2 (stereo not given)
  A = -8; B = 104; C = 99; D = 100

(69) O=C(CCS(=O)(=O)c1cccs1)Nc1ccc(C(=O)N2CC=C(c3ccccc3)CC2)cc1
  A = 1; B = 112; C = 68; D = 98

(70) CCOC(=O)c1cc(C(=O)Nc2ccc(Cl)cc2)c(=O)[nH]c1C
  A = -13; B = ·; C = ·; D = 107

(71) CC1CCCC(NC(=O)c2ccc3c(c2)NC(=O)CS3)C1C (stereo not given)
  A = ·; B = 89; C = 98; D = 107

(72) CCCNC(=O)C1CN(S(=O)(=O)c2ccc(C)cc2)c2ccccc2O1 (stereo not given)
  A = 7; B = 111; C = 101; D = ·

(73) Cc1ccc(NC(=O)NCCCN2CCN(c3ccccc3)CC2)cc1
  A = 0; B = ·; C = ·; D = 106

(74) COc1ccc(NC(=O)CSc2nc3ccccc3c(=O)n2CCC(=O)NC2CCCCC2)c(OC)c1
  A = ·; B = 93; C = 93; D = 105

(75) COc1ccccc1CNC(=O)c1ccc2c(c1)N(Cc1cc(C)ccc1C)C(=O)c1ccccc1S2
  A = ·; B = 109; C = 90; D = 102

(76) COc1ccc2[nH]c(C(=O)O)cc2c1
  A = -26; B = 83; C = 97; D = 96

Reprinted at random: 2 compounds from above.
Keys – A = HCMV NEC inh; B = Sa growth inh; C = Sa growth inh second temp; D = GIV-Gai inh
(56) CCCn1c(NCc2cccc(OC)c2OC)nc2ccccc21
  A = -1; B = 95; C = 80; D = 100

(53) CCn1ncc(Cc2cnn(CC)c2C)c1C
  A = -6; B = 89; C = 87; D = ·
